Screening results (PubChem)
NPYLR7 ag – mosquito NPYLR7 agonism. activation, % at 10 µM. HEK293T NPYLR7/Galpha15, GCaMP6s calcium fluorescence. 270,000 compounds, 0.15% hits; in the data active = activation above about 40%;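 note: 0% = vehicle and 100% = reference agonist at the receptor; some compounds past the cut are filed as inactive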
NPYLR7 ag max-min – also measured in NPYLR7 ag; calls as there; activation, %; measured here: Max-Min RFU normalised activation; some inactives read as strong as hits;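 span of the calcium signal over five minutes; 0% = vehicle and 100% = native peptide agonist; compound fluorescence can raise it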
Numbers without * were called inactive; & = joins results of further samples.

SMILES | NPYLR7 ag | NPYLR7 ag max-min
O=C1NCC(=O)N2CCN(C(=O)c3cc(-c4ccccc4)no3)CC12 (stereo not given) | 4 | 2
Cc1ccc(-n2nc(-c3ccc([N+](=O)[O-])cc3)cc2C(=O)N2CCC3(CC2)OCCO3)c(C)c1 | -2 | 12
COc1ccc(OCCNC(=O)c2cncn2-c2ccc(-c3c(OC)cccc3OC)cc2)cc1 | 14 | 19
O=C(O)c1ccc(N=Cc2nc(-c3ccc(Cl)cc3)oc2O)cc1 | -4 | -8
Cc1ccccc1N=c1oc2ccc3ccccc3c2cc1-c1nc2ccccc2[nH]1 | 6 | 16
O=C(c1cc(C(F)(F)F)cc(C(F)(F)F)c1)N1CCN(Cc2cc(=O)c(OCc3ccccc3Cl)co2)CC1 | 15 | 11
CCCNc1nc2c(C)cccn2c(=O)c1C=C1SC(=S)N(C(C)c2ccccc2)C1=O (stereo not given) | 12 | 9
Cc1cc(C)nc(SCc2c(C(=O)NCc3cccs3)nnn2-c2ccccc2)n1 | -4 | -8
FC(F)(F)C1(NCc2ccccc2)CCC2(CC1)OCCO2 | 10&5 | 4&3
OCc1cc2ccccc2nc1-c1cc(O)cc(CCC2CCCCN2)c1 (stereo not given) | 5 | 6
Cc1sc(NC(=O)c2ccc(CS(C)(=O)=O)o2)c(C)c1C | -4 | -4
CC1=C(C(=O)Nc2ccccc2)C2(CCCCC2)C(C(N)=O)C(SCc2ccccc2)=N1 (stereo not given) | -3 | -5
CC(NC(=O)c1ccccc1Cl)C(=O)N1CCN(c2cccc(Cl)n2)CC1 (stereo not given) | -3 | -3
COCCCN(Cc1c(-c2ccccc2)noc1N1CCc2ccccc2C1)C(=O)c1ccccc1OC | 14 | 13
Cc1nc(S(=O)(=O)NCC2CCN(Cc3ccccn3)C2)cn1C (stereo not given) | 0 | 1
Cc1nc2n(n1)C(=O)C(C(c1cccc(Cl)c1)N1CCC3(CC1)OCCO3)S2 (stereo not given) | 1 | -2
CSc1nnc(CN(CC2CC2)C(C)c2ccccc2)s1 (stereo not given) | 4 | 1
CC(c1cccc(-c2ccccc2C(N)=O)c1)N1CCCC1 (stereo not given) | 6 | 3
COCC(NCc1nnc(-c2ccc(C)n2C)o1)c1ccnn1C (stereo not given) | 4 | 2
COCCNC(=O)Cn1cc(C(F)(F)F)ccc1=O | 3 | -3
Nc1nc(NC2CCCCC2)nc(N2CCN(Cc3ccccc3)CC2)c1[N+](=O)[O-] | 1 | 0
CC1(C(=O)NC2Cc3ccccc3C2)CCN1C(=O)CC1CCCC1 (stereo not given) | 6 | 2
CCCCC(=O)OCC(=O)NC(=O)NC(C)(C)C | 5 | 3
Cc1nn(Cc2nn(-c3ccc(F)cc3)c3c2CCC3)c(=O)c(C#N)c1C | 4 | 4
Cc1noc(C)c1CN(C)Cc1cc2n(n1)CCNC2 | 5 | 4
COc1ccc(-c2cc(C(=O)N3CCN(c4ccccc4Cl)CC3)c(C)n2-c2ccccc2F)cc1 | -4 | 7
CCNC(=O)C1(NS(=O)(=O)c2c(C)c(C)c(C)c(C)c2C)CCCCC1 | 17 | 12
COc1ccc(C(=O)Oc2coc(CSc3nc(C)cc(C)n3)cc2=O)cc1OC | -14 | -8
CC(C)CN(Cc1cccn1Cc1ccccc1Cl)C(=O)CN(CC(C)C)C(=O)c1cc(Cl)cc(Cl)c1 | 1 | 17
CC(C)Cn1c(N)c(C(=O)COC(=O)Cc2ccc(Cl)cc2Cl)c(=O)n(C)c1=O | -3 | -8
Cc1cc(C)n(-c2nc(C)c(C)c(=O)n2CC(=O)Nc2cccc([N+](=O)[O-])c2)n1 | -1 | 5
Cc1ccc(C)c(NC(=O)COC(=O)c2cccc(S(=O)(=O)N3CCCC3)c2)c1 | -4 | -5
CCCCn1nc(NC(=O)C(C)C)c2cc3cc(OC)ccc3nc21 | -2 | -4
O=C(Cn1nc(-c2ccccc2)c2ccccc2c1=O)Nc1ccccn1 | 6 | 5
Cc1cccc(CN2CCCC3(CCN(C(=O)CCc4scnc4C)C3)C2)c1 (stereo not given) | 15 | 5
N#CCCCSc1ncc(-c2ccccc2)c(-c2ccccc2)n1 | 13 | 6
Cc1sc2nc(C)n(N=CN(C)C)c(=O)c2c1C | -6 | -12
OCCNc1ccc(-c2ccc(F)cc2Cl)nn1 | 17 | 14
CC(NS(=O)(=O)c1ccc(C(N)=O)cc1)c1cc(F)c(Cl)cc1Cl (stereo not given) | 20 | 19
Cc1cc(C(=O)CN2C(=O)C(=O)N(Cc3ccco3)C2=O)c(C)n1Cc1ccco1 | 1 | 0
COC(=O)c1ccc(S(=O)(=O)Nc2ccccc2OC(F)F)cc1 | -4 | -5
COCCCN(Cc1cccn1Cc1ccc(C(C)(C)C)cc1)CC(O)CN1CCOCC1 (stereo not given) | -1 | 2
C=CCn1c(=NC(=O)CN2C(=O)c3ccccc3C2=O)sc2cc(OCC)ccc21 | 3 | 2
COCCN(Cc1cccc(OS(=O)(=O)c2ccc(F)cc2)c1)C(=O)c1ccc([N+](=O)[O-])cc1 | 9 | 15
COc1ccc(/C=C/CN2CCCn3cncc3C2)cc1 | 4 | 1
CCOc1ccc2nc(N3CCCC(N(C)Cc4ccncc4C)CC3)nc(C)c2c1 (stereo not given) | 3 | -1
CCC/C=C/c1cc(N)nc(N2CCCC2)n1 | -4 | -7
COc1cccc(-c2ncc(CNC3CCSCC3)s2)c1 | 4 | 6
Cc1nccn1CCC(=O)O | 6 | 6
Cn1cc(/C=C/C(=O)N2CCc3ccc(NC(=O)c4ccccn4)cc3C2)cn1 | 11 | 3
CCC(=O)NCCCn1nc(-c2ccc(C)cc2)ccc1=O | 1 | -1
COCCN(CC(=O)N(Cc1ccc2c(c1)OCO2)Cc1ccc(C)o1)C(=O)c1ccc(OC)cc1OC | 13 | 14
O=C(O)C1CCN(c2nccs2)CC1 | 2 | 0
O=C(/C=C/c1ccccc1)Oc1cccc(-c2nc3ccc(Br)cn3c2NC2CCCCC2)c1 | 9 | 6
CC(C)(CO)NCc1ccc(-c2ccc(F)cc2)o1 | 1 | 7
COc1ccccc1C=CC=NN1CCN(C2c3ccccc3-c3ccccc32)CC1 | -1 | 0
O=C(OCc1nc2ccsc2c(=O)[nH]1)c1ccco1 | 2 | 9
CSc1ccc(NC(=O)N2CCOC(Cc3ccc(F)cc3)C2)cc1 (stereo not given) | -24 | -21
O=C(O)c1ccc(N2C(=O)CC(N3CCN(c4cccc(C(F)(F)F)c4)CC3)C2=O)cc1 (stereo not given) | -6 | -11
CC(C)c1noc(CNC2(c3ccc(F)cc3)CCCC2)n1 | -1 | -2
Additional results:
SMILES | NPYLR7 ag | NPYLR7 ag max-min
O=C(Nn1cnc2c(cnn2-c2ccc(F)cc2)c1=O)C1(c2ccc(Cl)cc2)CCCC1 | 6 | 5
Cc1ccc(-c2nn(CN3CCOCC3)c(=S)n2C)cc1 | 15 | 7
Cc1cc(C)n2c(NC(C)(C)C)c(-c3ccccc3C)nc2c1 | 3 | 1
CCCc1ccc(CN2CCC(N3CCCC3=O)CC2)o1 | 6 | 5
Cc1nc(C)c(C(=O)N(CC2CCN(CCc3ccccc3C)CC2)C2CCCC2)s1 | 14 | 6
CCOC(=O)c1cnc(-c2cccnc2)nc1NCc1cccc(F)c1F | -7 | -11
O=C(O)C1CC=C(Cl)CC1C(=O)Nc1nccs1 (stereo not given) | 6 | 4
CCN1CCCCC1CNc1cc(-c2nc(C)no2)ccn1 (stereo not given) | -7 | -7
Cc1nc(Sc2nnc3ccccn23)c2c3c(sc2n1)CCCC3 | 43* | 57*
Cn1c(=O)c2c(-c3ccccc3Cl)c(NCc3ccccc3)oc2n(C)c1=O | -7 | -8
COc1ccc(C(=O)N(CC(=O)N2CCc3sccc3C2c2ccccc2C)C2CCCCC2)cc1 (stereo not given) | 18 | 23
Cc1ccc(S(=O)(=O)N2CCN(c3cc(C)ccc3C)CC2)cc1 | -12 | -12

An excerpt of these results, with values under each structure.
Value order – NPYLR7 ag	NPYLR7 ag max-min
CCC(=O)NCCCn1nc(-c2ccc(C)cc2)ccc1=O
→ 1	-1
COCCN(CC(=O)N(Cc1ccc2c(c1)OCO2)Cc1ccc(C)o1)C(=O)c1ccc(OC)cc1OC
→ 13	14
O=C(O)C1CCN(c2nccs2)CC1
→ 2	0
O=C(/C=C/c1ccccc1)Oc1cccc(-c2nc3ccc(Br)cn3c2NC2CCCCC2)c1
→ 9	6
CC(C)(CO)NCc1ccc(-c2ccc(F)cc2)o1
→ 1	7
COc1ccccc1C=CC=NN1CCN(C2c3ccccc3-c3ccccc32)CC1
→ -1	0
O=C(OCc1nc2ccsc2c(=O)[nH]1)c1ccco1
→ 2	9
CSc1ccc(NC(=O)N2CCOC(Cc3ccc(F)cc3)C2)cc1 (stereo not given)
→ -24	-21
O=C(O)c1ccc(N2C(=O)CC(N3CCN(c4cccc(C(F)(F)F)c4)CC3)C2=O)cc1 (stereo not given)
→ -6	-11
CC(C)c1noc(CNC2(c3ccc(F)cc3)CCCC2)n1
→ -1	-2
O=C(Nn1cnc2c(cnn2-c2ccc(F)cc2)c1=O)C1(c2ccc(Cl)cc2)CCCC1
→ 6	5
Cc1ccc(-c2nn(CN3CCOCC3)c(=S)n2C)cc1
→ 15	7
Cc1cc(C)n2c(NC(C)(C)C)c(-c3ccccc3C)nc2c1
→ 3	1
CCCc1ccc(CN2CCC(N3CCCC3=O)CC2)o1
→ 6	5
Cc1nc(C)c(C(=O)N(CC2CCN(CCc3ccccc3C)CC2)C2CCCC2)s1
→ 14	6
CCOC(=O)c1cnc(-c2cccnc2)nc1NCc1cccc(F)c1F
→ -7	-11
O=C(O)C1CC=C(Cl)CC1C(=O)Nc1nccs1 (stereo not given)
→ 6	4
CCN1CCCCC1CNc1cc(-c2nc(C)no2)ccn1 (stereo not given)
→ -7	-7
Cc1nc(Sc2nnc3ccccn23)c2c3c(sc2n1)CCCC3
→ 43*	57*
Cn1c(=O)c2c(-c3ccccc3Cl)c(NCc3ccccc3)oc2n(C)c1=O
→ -7	-8
COc1ccc(C(=O)N(CC(=O)N2CCc3sccc3C2c2ccccc2C)C2CCCCC2)cc1 (stereo not given)
→ 18	23
Cc1ccc(S(=O)(=O)N2CCN(c3cc(C)ccc3C)CC2)cc1
→ -12	-12

Further results follow:
SMILES | NPYLR7 ag | NPYLR7 ag max-min
Cc1nsc(NC(=O)NCc2cccc(-n3cncn3)c2)n1 | 2 | -1
Clc1ccc(/C=C/c2nn3c(-c4cnccn4)nnc3s2)cc1 | 3 | 1
Cc1ccn2c(NC(C)(C)CC(C)(C)C)c(-c3ccc(OC(=O)c4ccc(C)c([N+](=O)[O-])c4)cc3)nc2c1 | -8 | 0
Oc1[nH]c2ccccc2c1N=Nc1ccc(F)cc1 | -1 | -7
Cc1cccc(C)c1NC(=O)CC1SC(N2CCCCC2)=NC1=O (stereo not given) | 6 | 11
C=CCn1c(N2CCN(c3ccccc3)CC2)nc2c1c(=O)n(C)c(=O)n2C | -5 | -7
COc1ccc(OC)c(NC(=O)C2(C)CCN2C(=O)CC2CC2)c1 (stereo not given) | 2 | -1
Cc1ccc(C(=O)N2CCC(CCCc3ccccc3)(C(=O)O)CC2)c(=O)[nH]1 | 2 | 0
O=[N+]([O-])c1ccc(S(=O)(=O)N=C2N=C3C=CC(Cl)=CN3Cc3ccccc32)cc1 | 5 | 3
O=C(NC1C=CS(=O)(=O)C1)Oc1ccccc1 (stereo not given) | 3 | 2
O=C(CCS(=O)(=O)c1ccccc1)Nc1nnc(-c2ccno2)o1 | 3 | 0
CCCCN=C1NS(=O)(=O)c2ccccc21 | -4 | 7
COc1ccc2[nH]c(=O)c(CN3CCC(CNC(C)=O)C3)cc2c1 (stereo not given) | 3 | 1
O=C1CCCN1c1ccc(S(=O)(=O)NCCc2ccccc2)cc1 | 2 | 4
Cc1cc(NC(=O)COc2ccccc2)n(-c2nc3c(c(=O)[nH]2)CCC3)n1 | -4 | -7
CC(C)c1ccc(/C=C/C(=O)NC(=S)NN2CCOCC2)cc1 | 1 | -1
O=C(OCc1cc(-c2ccccc2F)on1)c1cccs1 | -3 | -6
Cc1cc(C(=O)N2CSCC2C(=O)Nc2cccc(F)c2)on1 (stereo not given) | 1&3 | -4&3
c1ccc(-c2nnc(SCc3nnc(-c4ccco4)o3)o2)cc1 | 14 | 19
CCOC(=O)c1nn(-c2ccccc2)c(=O)cc1OS(=O)(=O)c1ccc(Cl)s1 | 10 | 4
Cc1cc(C)c(NC(=O)CSc2cn(CC(=O)N3CCOCC3)c3ccccc23)c(C)c1 | -11 | -15
OCCC1CN(Cc2cnn(-c3ccc(F)cc3)c2)CCN1Cc1ccsc1 (stereo not given) | 4 | 0
CC(O)c1cccc(NC(=O)Cc2c(-c3ccccc3)[nH]c3ccccc23)c1 (stereo not given) | 13 | 3
CCCCC(CC)C(=O)NCc1nnc(SCc2ccccc2C)n1-c1cc(Cl)ccc1C (stereo not given) | 2 | 15

Random excerpt: 2 records from the list
SMILES | NPYLR7 ag | NPYLR7 ag max-min
O=C1CCCN1c1ccc(S(=O)(=O)NCCc2ccccc2)cc1 | 2 | 4
COc1ccc2[nH]c(=O)c(CN3CCC(CNC(C)=O)C3)cc2c1 (stereo not given) | 3 | 1

The list continues.
SMILES | NPYLR7 ag | NPYLR7 ag max-min
CCOC(=O)C(CC)n1cnc2c(nnn2-c2cccc(OC)c2)c1=O (stereo not given) | 0 | 2
Cc1nn(C)c(C)c1NC(=O)C(C)N1CCc2nn(C)c(=O)cc2C1 (stereo not given) | 4 | 9
Cc1nccn1CCN(C)c1nc(C(C)(C)C)nc2c1cnn2C | 2 | 0
COCc1cc(C)nc(N/N=C\c2ccc(-c3ccc(Cl)cc3[N+](=O)[O-])o2)c1C#N | 1 | 11
O=S(=O)(CCOc1ccc(F)cc1)N1CCC2(CCCO2)CC1 | 5 | 2
CC(C)NC(=O)CN1CCN(S(=O)(=O)c2cccc(F)c2)CC1 | 3 | 0
CC(C)(CCl)C(=O)N1CCC(C(=O)NC2CCCC[C@H]2NC(=O)c2ccc(F)cc2)CC1 (stereo not given in full) | 2 | 9
COc1ccc(-n2ncc3c2CC(C)(C)CC3NC(=O)C2=CC(=O)CC(C)(C)O2)cc1 (stereo not given) | 5 | 0
CC(=O)c1ccc(Sc2ccc(F)cc2)c(F)c1 | -3 | -6
Cc1nc(CNC(=O)NCC(c2cccc(F)c2)N2CCOCC2)cs1 (stereo not given) | -5 | -5

Some of the compounds tested; rates above refer to the full screens.
